CSC inhib – blocks cancer stem cells. AID 2717. inhibition, % at 7.5 µM. cancer stem cell-like cells viability, luminescence. 1.1% of 300,000 active;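 active = mean at 75% or more and at least half the replicates too; tested in HMLE shEcad cells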;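 note: 0% = median of negative and 100% = median of positive control wells; the first replicate is given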
HIV Env fusion – inhibitors of HIV Env-mediated cell fusion | HeLa-JRFL Env/CEM21 cell fusion, luciferase | AID 651610 | inhibition, % at 12.3 µM | 1.1% of 360,000 active;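 active = mean replicate inhibition score of at least 50 and every replicate individually at or above 50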;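 note: 0% = plate neutral controls and 100% = maraviroc near 300 nM; one replicate is shown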
MT1-MMP act inh – blocks activation of human MT1-MMP; P50281; HT1080 RFP-PRO-GFP cells, GFP/RFP ratio fluorescence, overnight; percent of plate control window, DMSO zero; GFP/RFP ratio change, % at 20 µM; 0.061% of 360,000 active; AID 651647;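 active = GFP/RFP ratio change of at least 30% with cell ATP level not reduced by more than half and red fluorescence within 50% of control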; note: strong numbers were not always called active
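Compound: 20 µM single dose, 1% DMSO / System: HT1080 RFP-PRO-GFP cells / Controls: DMSO and RFP-L50D-GFP cell wells / Read-out basis: GFP/RFP fluorescence ratio / Schedule: overnight compound exposure at 37 °C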
UUG fidelity – alters start codon recognition fidelity in yeast. S. cerevisiae UUG-firefly luciferase reporter, luminescence/redox ratio. AID 602363. 0.13% of 350,000 active. activity score, % at 18.7 µM;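 active = replicate mean at a twofold rise or more, about +100% in these data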;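 note: firefly luciferase made from a UUG start codon reports start codon fidelity; reporter light over untreated wells divided by growth signal over untreated wells; some hits fall short of that in this replicate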
Rce1 inh – yeast Ras-converting enzyme inhibition. AID 2563. yeast membranes, quenched prenylated peptide cleavage fluorescence. calls only. 0.27% of 290,000 active;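 active = fall in fluorescence gain of 50% or more versus controls, with final raw signal at or below 3038400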;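 note: plate controls were neutral control wells for no effect and wells lacking membranes for full effect; tested at 10 µM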
Target sequence (Q03530 whole entry, looked up): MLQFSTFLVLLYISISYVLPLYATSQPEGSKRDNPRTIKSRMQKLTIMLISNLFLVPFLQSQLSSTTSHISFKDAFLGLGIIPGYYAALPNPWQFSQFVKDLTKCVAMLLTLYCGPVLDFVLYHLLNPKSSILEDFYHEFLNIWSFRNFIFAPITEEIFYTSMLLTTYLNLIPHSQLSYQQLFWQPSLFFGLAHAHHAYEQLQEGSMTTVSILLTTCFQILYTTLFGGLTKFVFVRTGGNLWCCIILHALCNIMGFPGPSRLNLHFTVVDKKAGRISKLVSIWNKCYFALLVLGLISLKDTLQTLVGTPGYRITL
PABP polyA inh – PABP-poly(A) binding inhibition; P11940; PABP-poly(A) RNA binding, fluorescence polarization; inhibition, % at 35 µM; 1% of 290,000 active; AID 2014;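 active = 50% or more with normal probe brightness, or confirmed in later tests; about a fifth of its hits are not listed in these tables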;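 note: calls also rest on retests at 20 µM and on dose response follow-up; controls were probe without protein and protein plus probe with vehicle; some compounds called inactive have numbers as strong as hits; many hits fall short of the cut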
eIF4H inh – inhibitors of RNA binding by human eIF4H. Q15056. eIF4H fluorescence polarization binding assay. inhibition, % at 35 µM. 0.94% of 290,000 active. AID 2012;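 active = 50% or more with normal probe brightness, or confirmed in later tests; about a fifth of its hits are not listed in these tables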;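 note: calls also rest on retests at 20 µM and on dose response follow-up; 0% = protein and probe with vehicle and 100% = probe without protein; strong numbers were not always called active; many hits fall short of the cut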
eIF4H inh retest – further read-out of eIF4H inh, marked with its call; inhibition, %; compound at 20 µM; confirmation average;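 mean of two retest wells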
PABP polyA inh retest – further read-out of PABP polyA inh, marked with its call; inhibition, %; compound at 20 µM; confirmation repeats;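 mean of two retest wells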
MT1-MMP act inh RFP – further read-out of MT1-MMP act inh, marked with its call; RFP signal change, %; measured here: RFP expression control read;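 0 = vehicle wells; hits needed this value within 50% of zero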
Starred values were filed as active, the others as inactive; i = inactive; x = not tested or not shown; & = joins results of further samples. The list is partial; count on the stated rates, not on these rows.

SMILES	CSC inhib	HIV Env fusion	MT1-MMP act inh	MT1-MMP act inh RFP	UUG fidelity	Rce1 inh	PABP polyA inh	eIF4H inh	others
COC(=O)c1ccc(CN2CCCC(C(=O)c3cc(F)ccc3OC)C2)cc1 (centres undefined)	5	-43	1	1	-7	i	13	-11
Cn1c(SCc2cccnc2)nc2c(c1=O)SCC2	-7	23	-1	2	x	i	24	8
COc1ccc(C(CC(=O)N2CCCC(C)C2)c2c(OC)cc(OC)c3ccc(=O)oc23)cc1 (centres undefined)	0	21	1	5	-15	i	4	7
CCCCC1(C)Cc2ccccc2C(=S)N1 (centres undefined)	-10	-29	3	3	-32	i	-1	-2
CCCCCc1ccnc(CC(=O)c2ccc(OC)cc2)c1	x	3	-4	-3	-7	x	x	x
C=CCn1c(SCC(=O)NC2CCCC2)nc2scc(-c3ccco3)c2c1=O	51	x	-19	2	-7	i	26*	71*	eIF4H inh retest=96*;PABP polyA inh retest=92*
Cc1noc(/C=C/N(C)C)c1S(=O)(=O)N1CCc2ccccc21	-3	-5	-3	5	-10	x	-13	-10
COc1ccc(Oc2nc3c(c(=O)n(C)c(=O)n3C)n2Cc2ccccc2)cc1	-7	x	0	2	-26	i	-3	-3
COc1cccc(-c2nc(CS(=O)(=O)CC(=O)N3CCN(c4ccccn4)CC3)c(C)o2)c1	-4	-2	6	-11	-3	i	0	3
COc1cccc(N(CC(=O)NC2CCCC2)C(=O)CCCC(=O)Nc2ccccn2)c1	-54	1	0	3	5	i	5	-12
CCn1cc(C(=O)NCCC(=O)NCCCO)c(=O)c2cc3c(cc21)OCO3	-9	-19	2	4	0	i	-6	-2
C=CCNC(=O)/C(C#N)=C/c1c(C)nn(-c2ccccc2)c1Cl	-5	20	-7	-12	-9	i	8	-6
c1csc(C(c2nnnn2C2CCCC2)N2CCCC3(CCCCC3)C2)c1 (centres undefined)	x	x	-19	-12	-10	i	2	8
CC(OC(=O)Cc1c[nH]c2ccccc12)C(=O)Nc1ccccc1F (centres undefined)	-5	-3	3	4	-4	i	x	x
CCCNC(=O)C1CCN(c2cc(-c3ccccc3)nc3ncnn23)CC1	1	17	-1	-2	-21	i	-6	6
O=c1[nH]c(=O)n(Cc2ccccc2)c2c1CCC2	3	x	-2	1	-17	i	-10	-13
CC1CCCN(C(=O)c2ccc(NS(=O)(=O)c3ccc4[nH]c(=O)[nH]c4c3)cc2)C1 (centres undefined)	-8	-9	-5	1	17	i	x	x
COc1ccc(-c2cc(C(=O)Nc3cc(C)on3)no2)cc1	3	-30	-2	3	-13	i	-8	-6
Cc1ccc(-n2cc(-c3ccccc3)[nH]c2=O)cc1F	-6	x	9	1	-14	i	-6	-13
O=C(Cc1cccs1)Nc1nnc(C2CC2)s1	-20	-9	3	0	-10	i	-6	0
Cc1ccnc(Nc2nc3ccccc3s2)n1	-2	-113	1	-2	x	i	6	6
CC(C)(C)S(=O)(=O)N1Cc2cc(CO)cc(CCO)c2[C@@H]1CCO	x	-71	4	7	-17	x	x	x
CCc1ccc2oc(C(=O)NCc3ccncc3)c(C)c2c1	-7	62*	-2	-19	-23	i	-13	-7
Cc1onc(-c2ccccc2Cl)c1C(=O)N/N=C(\N)COc1ccc(Cl)cc1	21	-14	9	-5	-11	i	2	7
COc1ccc(-c2cn3cccnc3n2)cc1NC(=O)c1cccs1	-8	-3	3	0	x	i	-6	-12
SMILES	CSC inhib	HIV Env fusion	MT1-MMP act inh	MT1-MMP act inh RFP	UUG fidelity	Rce1 inh	PABP polyA inh	eIF4H inh	others
CC12CN3CC(C)(CN(C1)C3c1ccccc1Cl)C2O (centres undefined)	-3	x	-1	1	-12	i	3	-2
CCn1cc(/C=C/C(=O)NCc2c(C)nn(C)c2C)cn1	-2	x	5	5	-4	i	15	-4
CC1(C)Oc2ccccc2OC1(O)c1ccc2ccccc2n1 (centres undefined)	-7	3	-5	-4	-18	i	0	1
CNC(=S)N/N=C/c1ccc(C(C)C)cc1	2	x	-1	2	-7	i	x	x
Cc1cccc(N2CCN(C(=O)C3CCC(CNS(=O)(=O)c4cccs4)CC3)CC2)c1C (centres undefined)	22	38	-9	-22	-5	x	4	-6
O=C(NC(=S)Nc1cccc2ncccc12)c1cccs1	-2	4	-4	-6	x	i	-16	2
CC(C)(C)c1cc(NC(=O)c2ccc(OC3CCCC3)cc2)no1	40	x	4	-5	-22	i	5	2
CCOC(=O)C(Sc1ncn[nH]1)c1ccccc1 (centres undefined)	-17	-37	3	4	-16	i	-2	-5
O=S(=O)(c1ccc(F)cc1)N1CCN(CC(O)COCC2CCCO2)CC1 (centres undefined)	x	-32	3	2	-10	x	x	x
CCC(C)/C(C)=N/NC(=O)CSc1nc2ccccc2[nH]1 (centres undefined)	5	34	6	8	x	i	-14	-10
Cc1onc(-c2ccccc2Cl)c1C(=O)OCC(=O)Nc1cccc(S(=O)(=O)N(C)C)c1	2	-6	-2	-13	-5	x	0	10
COC(=O)c1ccc(NC(=O)c2ccccc2-c2ccccc2C(=O)O)cc1	4	-10	1	1	9	i	5	4
Cc1cc(C(=O)OCC(=O)NC2CCCC(C)C2C)c(C)o1 (centres undefined)	4	x	5	3	7	x	x	x
CCOc1ccc(CN(C(=O)c2cc3ccccc3oc2=O)C2CCS(=O)(=O)C2)cc1 (centres undefined)	-14	-17	-1	-2	x	i	7	-7
CCCN(CCC)C(=O)CP(=O)(c1ccccc1)c1ccccc1	-4	-4	3	0	-20	i	-3	3
CC(C)Cc1nnc(NC(=O)c2ccc3c(=O)n4c(nc3c2)CCC4)s1	-12	-21	3	1	26	i	7	-4
CCc1c(C(=O)NCCc2ccc(OC)c(OC)c2)[nH]c(C)c1C(C)=O	-4	-20	-2	2	-22	x	-5	6
Cc1cc([N+](=O)[O-])nn1Cn1nc([N+](=O)[O-])cc1C	-3	-9	2	1	x	x	-4	0
O=C(CSc1nc(O)cc(=O)n1-c1ccc(Cl)c(Cl)c1)Nc1ccc(Cl)cc1Cl	-4	x	-1	6	-9	i	-2	-11
CCN1C(=O)CC(N2CCN(c3ccc(C(=O)c4ccccc4)cc3)CC2)C1=O (centres undefined)	-8	x	-1	-5	-3	i	6	2
C[C@H](CO)N1C[C@H](C)[C@H](CN(C)C(=O)Cc2ccccc2)OCc2cnnn2CCCC1=O	x	-38	0	3	3&3	x	x	x
Cc1ccc(C(=O)NCCCNC(=O)c2ccco2)cc1C	-5	15	5	7	-8	i	2	2
COc1ccc(CNC(=O)c2c[nH]c3ccccc3c2=O)cc1	-2	0	2	0	-11	i	-2	1
COc1ccc(NC(=O)c2cc([N+](=O)[O-])ccc2N2CCCCC2)cc1	25	12	-1	-4	-3	i	3	-1
O=c1cc(CN2CCc3ccccc32)c2ccc(O)cc2o1	-14	19	0	6	-4	x	-6	5
SMILES	CSC inhib	HIV Env fusion	MT1-MMP act inh	MT1-MMP act inh RFP	UUG fidelity	Rce1 inh	PABP polyA inh	eIF4H inh	others
Cc1ccc(S(=O)(=O)N(C)CC(=O)NNC(=O)CCNS(=O)(=O)c2cccc(C)c2)cc1	5	x	0	4	-22	x	x	x
Cc1cccc(C)c1NC(=O)C(=O)c1cn(C)c2ccccc12	-4	-13	0	0	-10	i	-15	2
O=C(NCC1CCCCC1)c1ccc2nc([C@@H]3O[C@H](CO)[C@@H](O)[C@H]3O)[nH]c2c1	x	-21	1	-2	-18	x	x	x
COc1ccc(-c2cc3c(=O)n(CC(=O)NC4CCN(Cc5ccccc5)CC4)ncn3n2)cc1	-8	x	4	1	-12	i	-1	8
CCCCCCn1cc(C(=O)O)c(=O)c2cc(F)c(N3CCN(C)CC3)cc21	-14	x	-3	-1	-12	i	10	2
CC(=O)NS(=O)(=O)c1ccc(NC(=O)CCC(=O)Oc2ccc(C)cc2)cc1	2	14	5	3	6	i	3	3
Cc1ccc(N(CC(=O)NC2CCCC2)C(=O)CNC(=O)c2cccs2)c(C)c1	x	4	-3	-1	-19	i	8	1
O=C(CC1C(=O)N(c2ccccc2)C(=O)N1Cc1ccco1)Nc1ccccc1 (centres undefined)	10	-1	1	3	x	i	-10	11
O=C1C=CC(=O)N1c1ccc(OC(F)F)cc1	103*	-5	-7	4	x	x	12	4
CC(C)(C)c1ccc(S(=O)(=O)N2CCC(c3nc4ccc(Cl)cc4[nH]3)CC2)cc1	19	x	6	-9	x	i	-2	-5
CC(NC(=O)c1ccc(F)cc1)c1ccccc1 (centres undefined)	-13	x	1	5	x	i	-7	2
COc1ccc(CCNC(=O)C/C(C)=N/NC(=O)c2ccc([N+](=O)[O-])cc2Cl)cc1OC	-4	3	-1	3	16	x	-2	5
CCCn1c(=S)[nH]c2cc(C(=O)N3CCN(c4ccccc4OC)CC3)ccc2c1=O	-7	7	-1	-5	-7	i	3	-1
Cc1[nH]c2ccccc2c1/C=C/C(=O)c1ccccc1	58	i	-28	0	-3	i	3	6
CCCCc1cc(=O)oc2cc(C)cc(OC(C)C(=O)NC(Cc3c[nH]c4ccc(O)cc34)C(=O)O)c12 (centres undefined)	0	x	1	2	-9	i	18	43
Cc1cc(OCc2n[nH]c(=S)n2-c2ccccc2)ccc1Cl	-16	-1	6	-1	-3	i	5	-6
Cc1c(OCC(=O)NCCN2CCOCC2)ccc2c3c(c(=O)oc12)CCC3	-1	-2	-2	3	-6	i	-3	-8
Cn1c(=O)c2[nH]c(NCC3CCCO3)nc2n(-c2ccccc2)c1=O (centres undefined)	8	x	-4	0	-9	i	0	3
O=C(Nc1nc2c(Br)cc(Br)cc2c(=O)s1)C1CCC1	55	-24	2	2	x	i	2	-1

Sorted by SMILES length (ascending): 14 of the compounds above
SMILES	CSC inhib	HIV Env fusion	MT1-MMP act inh	MT1-MMP act inh RFP	UUG fidelity	Rce1 inh	PABP polyA inh	eIF4H inh	others
CC(NC(=O)c1ccc(F)cc1)c1ccccc1 (centres undefined)	-13	x	1	5	x	i	-7	2
O=C1C=CC(=O)N1c1ccc(OC(F)F)cc1	103*	-5	-7	4	x	x	12	4
Cc1[nH]c2ccccc2c1/C=C/C(=O)c1ccccc1	58	i	-28	0	-3	i	3	6
O=C(Nc1nc2c(Br)cc(Br)cc2c(=O)s1)C1CCC1	55	-24	2	2	x	i	2	-1
Cn1c(=O)c2[nH]c(NCC3CCCO3)nc2n(-c2ccccc2)c1=O (centres undefined)	8	x	-4	0	-9	i	0	3
Cc1c(OCC(=O)NCCN2CCOCC2)ccc2c3c(c(=O)oc12)CCC3	-1	-2	-2	3	-6	i	-3	-8
O=C(CC1C(=O)N(c2ccccc2)C(=O)N1Cc1ccco1)Nc1ccccc1 (centres undefined)	10	-1	1	3	x	i	-10	11
Cc1ccc(N(CC(=O)NC2CCCC2)C(=O)CNC(=O)c2cccs2)c(C)c1	x	4	-3	-1	-19	i	8	1
CCCn1c(=S)[nH]c2cc(C(=O)N3CCN(c4ccccc4OC)CC3)ccc2c1=O	-7	7	-1	-5	-7	i	3	-1
CC(C)(C)c1ccc(S(=O)(=O)N2CCC(c3nc4ccc(Cl)cc4[nH]3)CC2)cc1	19	x	6	-9	x	i	-2	-5
COc1ccc(-c2cc3c(=O)n(CC(=O)NC4CCN(Cc5ccccc5)CC4)ncn3n2)cc1	-8	x	4	1	-12	i	-1	8
Cc1ccc(S(=O)(=O)N(C)CC(=O)NNC(=O)CCNS(=O)(=O)c2cccc(C)c2)cc1	5	x	0	4	-22	x	x	x
COc1ccc(CCNC(=O)C/C(C)=N/NC(=O)c2ccc([N+](=O)[O-])cc2Cl)cc1OC	-4	3	-1	3	16	x	-2	5
CCCCc1cc(=O)oc2cc(C)cc(OC(C)C(=O)NC(Cc3c[nH]c4ccc(O)cc34)C(=O)O)c12 (centres undefined)	0	x	1	2	-9	i	18	43

Screens (PubChem BioAssay)
